Assay outcomes as filed in PubChem BioAssay.
miR-21 FLuc – qHTS Assay for Modulators of miRNAs and/orActivators of miR-21 | Potency, µM (series often up to 38.3 µM), for inactives: top-dose reporter change, positive = more light | AID 2288, 2010 | HeLa miR-21 FLuc reporter, luciferase, 48 h | 340,000 tested, under 10 active; active = well fitted rising curve with a large enough effect; inconclusive = small, poorly fitted or top-dose-only effect; inactive = no such curve, though single readings can be large or run the other way;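 also: % of control where 0% means no effect; miR-21 action dims this reporter so a rising signal means less miR-21 action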
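HeLa cells endogenously expressing miR-21, stably carrying CMV-driven firefly luciferase with a downstream miR-21 binding site, 2000 cells/well. Titrations up to approximately 40 uM, 48 hours; luciferase luminescence read.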
GLA inh pH 4.5 – qHTS Assay for Inhibitors of Human alpha-Galactosidase at pH 4.5; Alpha-galactosidase A (Homo sapiens), P06280; purified enzyme, 4-MU-alpha-Gal fluorescence, pH 4.5; activity change, negative = inhibition, % at 105 µM; 230,000 tested, under 10 active; AID 1467, 2008; inconclusive = small, poorly fitted or top-dose-only inhibition, or a rising curve; inactive = flat fitted curve, though single readings scatter; no compound was filed as active;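 also: 0% = full activity with enzyme and -100% = basal without enzyme; dose as in the result columns while the protocol names 77 µM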
Target sequence (P06280 whole entry, looked up): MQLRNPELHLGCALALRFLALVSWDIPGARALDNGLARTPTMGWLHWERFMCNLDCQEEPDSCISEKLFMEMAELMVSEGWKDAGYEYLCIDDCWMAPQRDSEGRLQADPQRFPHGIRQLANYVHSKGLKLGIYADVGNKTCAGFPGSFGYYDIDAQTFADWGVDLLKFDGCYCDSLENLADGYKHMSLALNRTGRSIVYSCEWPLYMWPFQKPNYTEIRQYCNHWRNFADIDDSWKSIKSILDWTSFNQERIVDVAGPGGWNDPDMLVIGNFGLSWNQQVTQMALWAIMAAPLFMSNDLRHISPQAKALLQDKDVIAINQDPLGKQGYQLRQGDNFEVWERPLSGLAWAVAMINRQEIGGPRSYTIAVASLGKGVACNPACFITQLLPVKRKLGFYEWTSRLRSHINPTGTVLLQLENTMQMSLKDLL
Rango-impB inh – qHTS Assay for Inhibitors of Rango (Ran-regulated importin-beta cargo) - Importin beta complex formation. Importin subunit beta-1 (Homo sapiens), Q14974. Rango CFP/YFP FRET sensor + importin beta, 45 min. Potency, µM (series often up to 92.2 µM), inactives show at the highest dose inhibition of complex formation. hit rate 0.031% among 340,000. AID 540263, 2011; active = rising FRET ratio curve, often small or poorly fitted; inconclusive = mostly compound fluorescence or quenching in the first reads; inactive = flat curves in all reads;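 also: potency is read from the fitted curve at half-maximal effect; 0% = DMSO wells and 100% = buffer wells lacking importin beta; nearly all actives have a fitted effect of over 15% in size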
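FRET biosensor (snurportin 1 IBB flanked by EYFP and cerulean), 50 nM, with compound 5 min, then 0.125 microM importin beta in PBS, 1 mM DTT, 0.02% Tween-20, 0.1% BSA. CFP/YFP ratio read after 45 min at room temperature; pre-read flags interference.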
Rango release inh – qHTS Assay for Inhibitors of RanGTP induced Rango (Ran-regulated importin-beta cargo) - Importin beta complex dissociation | Snurportin-1 (Homo sapiens) + GTP-binding nuclear protein Ran (Homo sapiens) + Importin … | Biochemical FRET Rango-importin beta, RanGTP-induced dissociation | AID 540253, 2011 | hit rate 0.071% among 340,000 | Potency, µM (titrated, usually from 46.1 µM), without a hit: top-dose activity change, negative = inhibition; active means falling FRET ratio curve, often poorly fitted, with flat reads before Ran was added; inconclusive means other falling curves, or compound fluorescence or quenching; inactive means flat or rising ratio curve;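 also: potency is read from the fitted curve at half-maximal effect; % of control where 0% means no effect; nearly all actives have a fitted effect of over 45% in size; -100% = wells without RanGTP and RCC1; the record marks most hits as doubtful in a second field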
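Compounds preincubate 5 min with complex of recombinant Rango and importin beta in PBS with 1 mM DTT. Ran (0.6 uM) loaded with 2 mM GTP plus 0.2 uM RCC1 starts dissociation; FRET is recorded 45 min later.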
Active calls of the source: *; ? = inconclusive; / = no result given.

SMILES	miR-21 FLuc	GLA inh pH 4.5	Rango-impB inh	Rango release inh
O=C1[C@@H]2Cc3c([nH]c4ccccc34)C(c3cccc(Br)c3)N2C(=O)CN1C1CCN(Cc2ccccc2)CC1 (stereo partly specified)	?	/	-1.7%	-1.2%
O=C(COc1c(Cl)cccc1Cl)Nc1ccccc1N1CCCC1	-13.9%	/	-1.6%	-2.4%
CC(OC(=O)CCc1ccccc1)C(=O)Nc1ccc(Cl)cn1 (stereo unspecified)	/	/	-2.7%	-0.9%
Cc1nc(C)n(CC(C)C(=O)N2CCN(S(=O)(=O)c3ccc(Cl)cc3)CC2)n1 (stereo unspecified)	-1.8%	/	6.2%	-17.4%
CC(C)(C)NC(=S)NCc1cccnc1	0.0%	1.8	-3.5%	-4.3%
Cc1cccc2cc(C#N)c(SCc3nnc(-c4ccccc4[N+](=O)[O-])o3)nc12	-6.0%	-0.5	-0.4%	4.1%
CO/N=C/c1ccc(Oc2ccc(C)cc2)c([N+](=O)[O-])c1	-31.0%	1.2	-1.8%	-1.2%
Cc1ccc2[nH]c(=O)c(CNC(C)C)cc2c1	-0.3%	5.5	-4.8%	6.7%
Cc1nn(C(C)C(=O)NCCCN2CCCCC2C)c(=O)c2c1sc1ccccc12 (stereo unspecified)	-4.8%	/	1.9%	-15.2%
Cc1cc(O)c(-c2cc(C(=O)Nc3cccnc3)[nH]n2)cc1C	-78.3%	5.0	0.8%	6.3%
CCOc1cc2c(cc1OCC)C(c1ccccc1)N(c1ccccc1)C(=O)C2 (stereo unspecified)	-3.3%	-3.0	0.3%	17.4%
CC(=O)c1ccc(NC(=O)c2ccc3nc(C)sc3c2)cc1	-57.7%	/	0.5%	1.3%
O=C(O)CC(NC(=O)C12CC3CC(CC(C3)C1)C2)c1ccc(F)cc1 (stereo unspecified)	-0.1%	/	-2.1%	0.1%
COc1ccc(-n2c(CCc3ccccc3)nnc2SCC(=O)c2ccccc2)cc1	-8.1%	-11.6	-0.3%	-10.6%
COc1ccc(-c2nc3c(n2O)CCC/C3=N\O)cc1	-40.1%	-15.1	-0.3%	0.0%
CCN1C[C@@H]2[C@@H]3C(=O)N(Cc4ccccc4)C(=O)[C@@H]3[C@](Cc3ccccc3)(C(=O)OC)N2C1=NCc1ccccc1	/	/	-4.1%	?
C=CCN1C(=O)c2ccc(C(=O)N3CCN(c4ccccc4OC)CC3)cc2C1=O	/	/	0.3%	8.2%
CC(=O)NCC(=O)NC(C(=O)Nc1ccc2c(c1)OCCO2)c1ccc(C)cc1 (stereo unspecified)	-10.6%	-6.9	0.1%	-17.7%
O=C(CCN1C(=O)/C(=C/c2ccccc2Cl)SC1=S)NC1CCS(=O)(=O)C1 (stereo unspecified)	-3.7%	/	-0.5%	3.0%
Cc1nnc(C)n1/N=C/c1ccc(O)cc1	-1.7%	-5.6	-2.9%	-16.7%
O=C(CSCc1ccc(Cl)cc1)Nc1ccccc1C(=O)N1CCOCC1	-3.5%	3.7	?	-11.7%
Cc1ccc(-c2nnc(CCC(=O)NCC3C4CC5CC(C4)CC3C5)o2)s1 (stereo unspecified)	-83.9%	-29.0	-1.8%	7.2%
CC[C@H](C)[C@H]1CNC(=S)N1CC1CCN(CCCC2CCCC2)CC1	/	/	0.2%	12.0%
COc1ccc(CN(C(=O)CSc2nnc(-c3ccccc3F)o2)c2ccc(F)cc2)cc1	1.1%	-5.0	-3.7%	12.5%
CC1(C)CC(=O)C2=C(C1)Oc1ncn(CCO)c(=N)c1C2c1ccccc1 (stereo unspecified)	-6.2%	-7.5	-2.5%	-18.4%

Exported with bars between the fields: part of the list above.
structure | miR-21 FLuc | GLA inh pH 4.5 | Rango-impB inh | Rango release inh
CC(=O)c1ccc(NC(=O)c2ccc3nc(C)sc3c2)cc1 | -57.7% | / | 0.5% | 1.3%
O=C(O)CC(NC(=O)C12CC3CC(CC(C3)C1)C2)c1ccc(F)cc1 (stereo unspecified) | -0.1% | / | -2.1% | 0.1%
COc1ccc(-n2c(CCc3ccccc3)nnc2SCC(=O)c2ccccc2)cc1 | -8.1% | -11.6 | -0.3% | -10.6%
COc1ccc(-c2nc3c(n2O)CCC/C3=N\O)cc1 | -40.1% | -15.1 | -0.3% | 0.0%
CCN1C[C@@H]2[C@@H]3C(=O)N(Cc4ccccc4)C(=O)[C@@H]3[C@](Cc3ccccc3)(C(=O)OC)N2C1=NCc1ccccc1 | / | / | -4.1% | ?
C=CCN1C(=O)c2ccc(C(=O)N3CCN(c4ccccc4OC)CC3)cc2C1=O | / | / | 0.3% | 8.2%
CC(=O)NCC(=O)NC(C(=O)Nc1ccc2c(c1)OCCO2)c1ccc(C)cc1 (stereo unspecified) | -10.6% | -6.9 | 0.1% | -17.7%
O=C(CCN1C(=O)/C(=C/c2ccccc2Cl)SC1=S)NC1CCS(=O)(=O)C1 (stereo unspecified) | -3.7% | / | -0.5% | 3.0%
Cc1nnc(C)n1/N=C/c1ccc(O)cc1 | -1.7% | -5.6 | -2.9% | -16.7%
O=C(CSCc1ccc(Cl)cc1)Nc1ccccc1C(=O)N1CCOCC1 | -3.5% | 3.7 | ? | -11.7%
Cc1ccc(-c2nnc(CCC(=O)NCC3C4CC5CC(C4)CC3C5)o2)s1 (stereo unspecified) | -83.9% | -29.0 | -1.8% | 7.2%
CC[C@H](C)[C@H]1CNC(=S)N1CC1CCN(CCCC2CCCC2)CC1 | / | / | 0.2% | 12.0%
COc1ccc(CN(C(=O)CSc2nnc(-c3ccccc3F)o2)c2ccc(F)cc2)cc1 | 1.1% | -5.0 | -3.7% | 12.5%
CC1(C)CC(=O)C2=C(C1)Oc1ncn(CCO)c(=N)c1C2c1ccccc1 (stereo unspecified) | -6.2% | -7.5 | -2.5% | -18.4%

(listing goes on)
SMILES	miR-21 FLuc	GLA inh pH 4.5	Rango-impB inh	Rango release inh
COc1ccc(/C(O)=C2/C(=O)C(=O)N(CCN3CCNCC3)C2c2cccc([N+](=O)[O-])c2)cc1 (stereo unspecified)	0.6%	/	1.3%	0.7%
COc1ccc(N2CCN(CC(=O)Nc3ccc(C)c(C)c3)CC2)cc1	-2.4%	/	-3.2%	-10.0%
CCSc1nc(N)c2c(C)c(C)sc2n1	-13.2%	2.6	-1.1%	10.9%
CCc1nc2ccccc2c(=O)n1/N=C/c1ccc(OC)cc1	/	/	-0.4%	0.1%
Cc1cc(C[n+]2cc(Br)ccc2N)c2ncccc2c1	10.6%	4.9	-0.7%	-0.9%
COCCCNC(=O)CCN1C(=O)COc2ccccc21	-3.4%	-0.8	-0.6%	-3.1%
N=c1sccn1CC(=O)NC(=O)NC1CCCC1	-0.1%	-6.7	-2.4%	-6.7%
CCOCCCNC(=O)c1c[nH]c2ccc(OCC)cc2c1=O	10.1%	1.6	-0.8%	-0.2%
Cc1csc(SCC(=O)NC(=O)NC2CCCC2)n1	-8.2%	-4.6	0.0%	-9.3%
CC1=C(C(=O)NCCc2ccc(C)cc2)C2(CCC(C)CC2)OC1=O (stereo unspecified)	-1.6%	4.4	4.7%	13.9%
COc1cc(/C=C2/SC(=S)N(Cc3ccccc3)C2=O)ccc1OS(C)(=O)=O	0.7%	/	1.3%	1.3%
Cc1ccc(C2C3=C(Nc4[nH]n(-c5ccccc5)c(=O)c42)c2ccccc2C3=O)cc1 (stereo unspecified)	4.5%	-1.2	/	/
CCc1ccc(NC(=O)C2CCN(S(=O)(=O)c3ccc4c(c3)N(C(C)=O)CCO4)CC2)cc1	12.6%	/	0.1%	31.3%
CN(C)S(=O)(=O)N(CC(=O)Nc1ccc(F)c(F)c1)c1ccccc1	0.2%	-7.4	-2.6%	-16.7%
Cc1ccc(CNC(=O)c2ccc(OCC3CCCO3)cc2)cc1 (stereo unspecified)	-21.1%	6.3	-4.6%	1.3%
COC(=O)C1CCN(C(=O)c2ccc3nccnc3c2)CC1	-3.9%	/	-3.8%	-8.5%
Cc1ccc(S(=O)(=O)N2CCN(c3ccnc4cc(Cl)ccc34)CC2)cc1C	1.1%	?	-1.6%	4.5%
CCCOc1ccc(N2C(=O)CC(N(CCCO)C(=O)CC)C2=O)cc1 (stereo unspecified)	5.3%	-2.0	-0.1%	5.3%
C=CCn1c(COc2ccc(Cl)cc2)nnc1SCC(=O)N/N=C/c1ccccc1	-2.9%	-22.3	0.8%	-11.9%
O=C(c1ccccc1)c1cccn1CC(=O)N1CCCCCC1	-3.5%	-2.5	-0.1%	-7.5%
CC(C)C(=O)Nc1ccccc1C(=O)N/N=C/c1ccc([N+](=O)[O-])cc1	-6.6%	-26.6	-4.8%	-0.1%
Cc1cccc(C(=O)Nc2cccc(OC(=O)c3cccc(C)c3)c2)c1	-40.8%	1.5	2.5%	-8.0%
CN(C(=O)CSc1nnnn1-c1ccccc1)C1CCS(=O)(=O)C1 (stereo unspecified)	-1.9%	-1.9	-1.0%	-6.6%
Cc1ccc(OC(=S)Nc2ccccc2)c(C)c1	-5.1%	-8.8	5.7%	-4.4%
CC(=O)OCc1nc2ccccc2s1	-58.7%	0.0	0.9%	1.5%

Later entries
SMILES	miR-21 FLuc	GLA inh pH 4.5	Rango-impB inh	Rango release inh
CC(NC(=O)COC(=O)c1ccco1)c1ccccc1 (stereo unspecified)	-0.9%	-9.3	-0.8%	1.7%
CCOC(=O)N1CCN(CCC(=O)Nc2cc(OC)ccc2OC)CC1	-1.7%	8.2	-4.6%	-5.7%
Cc1ccccc1Cn1cnc2ccccc21	4.8%	-1.4	1.9%	-10.8%
C/C(=C\C(=O)c1c(O)cc(C)oc1=O)N(C)C	-0.6%	2.4	?	?
CC(C)CCc1noc(CN2CCN(CC(=O)NC(C)C)CC2)n1	4.2%	-1.9	-3.8%	-6.5%
COc1ccc(N2C(=O)CC(Sc3nc4ccccc4s3)C2=O)cc1OC (stereo unspecified)	-1.1%	-19.5	0.2%	-11.1%
COC(=O)C1=C(C)NC2=C(C(=O)CC(C)(C)C2)C1c1ccccn1 (stereo unspecified)	-7.0%	?	?	?
CN(C(=O)CC1C(=O)NCCN1CC1CCCCC1)C1CCOCC1 (stereo unspecified)	0.1%	2.8	?	-10.6%
Cc1ccc(-c2noc(CCCOc3ccc(Cl)cc3Cl)n2)cc1	1.2%	3.3	0.3%	-6.2%
CCCCCCn1c(N2CCC(C)CC2)nc2c1c(=O)[nH]c(=O)n2C	-6.0%	-4.8	1.1%	-0.6%
CCOc1ccc(CNc2ccc3c(c2)ncn3C(C)(C)C)cc1	-43.3%	/	-1.9%	-20.1%
O=C(c1ccc(Cl)cc1)N(c1ccccn1)C1CCCCC1	1.1%	4.5	-2.6%	0.7%
O=C(C1CCN(S(=O)(=O)c2ccc(Br)s2)CC1)N1CCc2ccccc21	4.9%	-4.1	0.3%	-6.4%
CC1=C[C@H]2OC(=O)[C@@H](C)[C@H]2C[C@@H]2[C@H]1C[C@@H](O)[C@@]2(C)O	7.2%	4.6	-3.3%	17.5%
O=C(CC12CC3CC(CC(C3)C1)C2)NC(Cc1ccccc1)C(=O)O (stereo unspecified)	-8.9%	6.8	1.8%	1.4%
COc1ccc(C)cc1N(C(=O)CNC(=O)c1ccco1)C(C(=O)NCC1CCCO1)c1ccccc1 (stereo unspecified)	-4.7%	/	-4.1%	-20.6%
COc1ccc(F)c(-c2nc(CN3CCN(C(=O)c4ccco4)CC3)c(C)o2)c1	-8.2%	/	1.7%	-9.8%
Cc1cccc(NC(=O)c2ccc(Cl)c(S(=O)(=O)N3CCCCCC3)c2)n1	/	/	-3.0%	11.5%
COC(=O)c1sccc1NC(=O)c1ccc2c(c1)OCO2	-4.8%	-7.6	1.1%	-0.1%
CCOC(=O)C(NC(=O)CC(C)C)(Nc1sc(C)c(CC)c1C#N)C(F)(F)F (stereo unspecified)	-1.7%	-12.8	0.0%	-10.1%
O=C(CN1C(=O)C(=O)c2ccccc21)NCCc1ccccc1	2.7%	-1.4	-2.8%	-22.0%
O=c1c2ccccc2c(-c2ccccc2)nn1-c1cc(Cl)cc(Cl)c1	-3.6%	0.8	-0.6%	-4.6%

A portion of the library; rates above refer to the full screens.
